ClpP mod – qHTS Assay for Activators of ClpP | Potency, µM (doses to about 57.5 µM), without a hit: at the top dose activity change, negative = active | ATP-dependent Clp protease proteolytic subunit (Bacillus subtilis (strain 168)), P80244 | actives 1.9% (n = 340,000) | AID 651965, 2013 | purified B. subtilis ClpP, FRET peptide cleavage, 20 min; active = well fitted falling curve with a large enough effect; inconclusive = small, poorly fitted or top-dose-only effect; inactive = no such curve, though single readings can be large or run the other way; also: potency is read from the fitted curve at half-maximal effect; the source files actives as falling curves though it sought activators and does not explain the sign; nearly all actives have a fitted effect of over 65% in size; many hits overshoot -100%
Target sequence (P80244 whole entry, looked up): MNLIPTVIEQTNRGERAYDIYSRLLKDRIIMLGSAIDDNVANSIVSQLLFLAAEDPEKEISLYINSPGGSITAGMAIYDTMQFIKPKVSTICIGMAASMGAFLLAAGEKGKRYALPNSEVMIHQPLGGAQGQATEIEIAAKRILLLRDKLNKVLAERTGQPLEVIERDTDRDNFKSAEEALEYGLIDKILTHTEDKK
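ClpP 10 microg/mL final, pH 8 Tris/KCl buffer with BSA, glycerol, Tween-20; compound pinned in; FRET-FV substrate; RT 20 min; Ex320/Em430; ΔFRET vs ADEP 5.8 microM, DMSO, no enzyme.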
gsp agonist – qHTS for Agonist of gsp, the Etiologic Mutation Responsible for Fibrous Dysplasia/McCune-Albright Syndrome: qHTS | gsp mutant cells, cAMP HTRF, 30 min; control for the full effect not named in the record | Potency, µM (titrated, usually from 76.9 µM), inactives show top-dose activation (cAMP increase), most hits filed as activators | actives 0.13% (n = 340,000); active = well fitted activation curve with a large enough effect; inconclusive = small, poorly fitted or top-dose-only effect, or another doubt; inactive = no such curve, though single readings can be large or run the other way; cell line not stated here;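 also: phosphodiesterase inhibitor Ro 20-1724 added with compounds to block cAMP breakdown; potency is read from the fitted curve at half-maximal effect; nearly all actives have a fitted effect of over 60% in size; about a fifth of the inactives were tested at one dose only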
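Cells in DMEM/10% FBS with G418 were pretreated with compounds in DMSO plus […] (300 uM stock) for 30 min at 37C. cAMP was measured by HTRF (cAMP-d2 plus anti-cAMP antibody-K) after 30 min at room temperature.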
gsp antagonist – qHTS for Antagonists of gsp, the Etiologic Mutation Responsible for Fibrous Dysplasia/McCune-Albright Syndrome: qHTS. gsp-mutant cells, cAMP HTRF, 30 min; control for the full effect not named in the record. Potency, µM (doses to about 76.9 µM), without a hit: at the top dose activity change, negative = inhibition, actives largely listed as inhibitors. actives 0.4% (n = 340,000); active = falling curve of any shape with a large fitted effect; inconclusive = falling curve, mostly with a smaller effect; inactive = flat or rising curve; cell line not stated here;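 also: intracellular cAMP measured with PDE inhibitor Ro 20-1724 present during compound exposure; potency is read from the fitted curve at half-maximal effect; % is scaled to controls: 0 for no effect and ±100 for the full control effect; nearly all actives have a fitted effect of over 65% in size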
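HTRF cAMP read-out (cAMP-d2 plus anti-cAMP antibody-K in lysis buffer, 30 min RT). Before lysis, cells are exposed to compounds with […] for 30 min at 37C in DPBS containing Ca/Mg, BSA and Tween 20.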
Menin MLL FP FL – qHTS Assay for Inhibitors Targeting the Menin-MLL Interaction in MLL Related Leukemias: Competition With Fluorescein Labeled MLL-derived Peptide; Fluorescence polarization, fluorescein-MLL peptide displacement from menin; FP activity change, % at 61.4 µM; 290,000 tested, under 10 active; inconclusive = falling polarisation curve, or a change in total fluorescence; inactive = total fluorescence flat and polarisation flat or rising; no compound was filed as active; the % refers to the polarisation; negative = inhibition;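 also: % of control where 0% means no effect; inhibitors lower the polarisation; unlabelled MLL peptide was the positive control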
D2 PAM – Beta-Arrestin HTS for Positive Allosteric Modulators of the Human D2 Dopamine Receptor: Potentiators | D(2) dopamine receptor (Homo sapiens), P14416 | DiscoveRx D2 beta-arrestin cells, luminescence, 90 min; 100% = 57 uM dopamine signal | potentiation, % (test concentration not listed) | actives 0.23% (n = 360,000); active = potentiation of 50% or more; inconclusive = 30% to 50%; inactive = 30% or less;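 also: compound concentration not given in the record; tested on top of an EC20 dose of dopamine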
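D2 cells co-treated with compound plus 50 nM dopamine (EC20) for 90 min at 37 deg C to detect potentiation. Beta-arrestin recruitment was read as enzyme-fragment luminescence after 1 h at ambient temperature. Full response was set by 57 uM dopamine.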
TRPV1 potentiator – HTS Assay for Compounds that Act as Potentiators of the Vanilloid Receptor 1; Transient receptor potential cation channel subfamily V member 1 (Homo sapiens), Q8NER1; TRPV1-expressing cells, Fluo-8 calcium influx, capsaicin EC20 potentiation; host cell line not named in the record; control for the full effect not named in the record; potentiation, % at 8.33 µM; actives 0.02% (n = 320,000); AID 540277, 2011; active means potentiation above 80%; inconclusive means 30% to 80%; inactive means below 30%; also: 0% is about no effect
Target sequence (Q8NER1 whole entry, looked up): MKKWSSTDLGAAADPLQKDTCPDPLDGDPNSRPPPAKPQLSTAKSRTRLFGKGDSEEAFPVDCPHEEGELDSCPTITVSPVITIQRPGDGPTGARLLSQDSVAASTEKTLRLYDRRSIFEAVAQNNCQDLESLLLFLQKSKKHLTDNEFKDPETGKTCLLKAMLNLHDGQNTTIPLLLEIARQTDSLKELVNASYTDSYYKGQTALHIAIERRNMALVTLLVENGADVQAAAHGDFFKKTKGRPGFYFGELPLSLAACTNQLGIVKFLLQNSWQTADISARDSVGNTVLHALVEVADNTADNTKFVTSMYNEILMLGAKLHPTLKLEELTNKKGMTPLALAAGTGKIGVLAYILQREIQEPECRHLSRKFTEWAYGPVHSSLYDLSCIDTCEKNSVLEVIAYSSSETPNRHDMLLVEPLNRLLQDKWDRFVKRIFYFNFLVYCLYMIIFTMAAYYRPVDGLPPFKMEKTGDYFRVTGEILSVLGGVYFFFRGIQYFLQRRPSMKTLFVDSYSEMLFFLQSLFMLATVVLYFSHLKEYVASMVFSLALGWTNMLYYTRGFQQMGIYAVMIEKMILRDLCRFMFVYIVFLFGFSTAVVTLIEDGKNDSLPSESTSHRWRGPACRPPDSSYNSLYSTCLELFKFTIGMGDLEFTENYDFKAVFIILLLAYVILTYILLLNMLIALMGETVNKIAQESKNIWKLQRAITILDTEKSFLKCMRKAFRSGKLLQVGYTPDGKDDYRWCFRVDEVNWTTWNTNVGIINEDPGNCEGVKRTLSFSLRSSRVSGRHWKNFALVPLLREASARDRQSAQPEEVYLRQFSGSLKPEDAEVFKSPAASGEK
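Fluo-8 calcium influx in TRPV1-expressing cells, kinetic read (ex 480/em 520 nm). Compound added and read 3 min for agonist activity, followed by capsaicin at EC20 final and 2 min further read for enhancement.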
Sfp PPTase inh – qHTS Assay for Inhibitors of Bacillus subtilis Sfp phosphopantetheinyl transferase (PPTase) | 4'-phosphopantetheinyl transferase ffp (Bacillus subtilis), Q9F4F7 | AID 1490, 2009 | actives 3.5% (n = 310,000) | Potency, µM, inactives show max response, negative = inhibition, actives largely listed as inhibitors | Biochemical Sfp PPTase activity, qHTS; active = well fitted inhibition curve with a large enough effect; inconclusive = small, poorly fitted or top-dose-only effect, or another doubt; inactive = no such curve, though single readings can be large or run the other way;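 also: the enzyme is Sfp with the accession as filed and its product quenches rhodamine fluorescence; potency is read from the fitted curve at half-maximal effect; 0% = enzyme reaction without inhibitor and -100% = no enzyme wells; top concentration of the series not given in the record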
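Compounds were incubated with enzyme (final 15 nM) for 15 min at room temperature before substrate addition started the reaction. Fluorescence at 525 nm excitation, 598 nm emission was recorded immediately and after 30 minutes.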
Active calls of the source: *; ? = inconclusive; . = no result given; & = joins results of further samples; [ ] = remark or other dose.

Value order: ClpP mod	gsp agonist	gsp antagonist	Menin MLL FP FL	D2 PAM	TRPV1 potentiator	Sfp PPTase inh
> CC(C)CCNC(=O)CN(Cc1ccco1)C(=O)CCC(=O)Nc1nccs1
    .	13%	2%	3.3	-5	-2	25%
> CCOc1ccccc1-c1nc(-c2ccc(NC(=O)Cc3ccc(OC)cc3)cc2)no1
    -18%	20%	0%[15.4 µM]	0.1	13	.	-6%
> O=C(Nc1cccn2ncnc12)C(Cl)Cl
    0.0%	-19%	-6%	1.2	-8	4	19%
> COCCNC(=O)Nc1ccc(F)cc1
    .	8%[15.4 µM]	.	2.2	10	-12	22%
> COC(=O)c1ccccc1Oc1ccc(NC(=O)c2ccco2)cc1
    -2.2%	-16%	-12%	4.1	-9	-10	4%
> COc1cc(NC(=O)c2ccc(-c3cccc([N+](=O)[O-])c3)o2)ccc1NC(=O)C(C)C
    2.9%	-13%	-36%	-0.8	-20	15	22%
> O=C(Nc1ccc(S(=O)(=O)N2CCCC2)cc1)c1ccc2c(=O)n3c(nc2c1)CCCCC3
    -30%	-12%	17%	-0.9	-4	-47	1%
> CCOc1cc(CNCc2ccc(C(=O)O)cc2)ccc1OC
    .	-8%[15.4 µM]	-2%	2.5	-3	16	-13%
> NCCCC[C@H]1CNC(=S)N1CCc1cccc(F)c1
    -0.7%	.	1%	0.6	-10	-10	3%
> Nc1nnc(SCC(=O)NC2CCCCCCC2)s1
    .	-20%[15.4 µM]	9%	.	1	-14	.
> COc1ccc(CNC(=O)C(=O)NCC2OCCN2S(=O)(=O)c2ccc(C)cc2)cc1 (stereo not given)
    1.2%	-76%[inhibitor]	-6%	-7.1	-5	-8	15%
> COc1cc(C(=O)Nc2nnc(C(C)(C)C)s2)c([N+](=O)[O-])cc1OC
    -2.0%	-35%[inhibitor]	-8%	6.6	5	5	-57%
> Cc1cc(C(=O)CN2c3cccc4cccc(c34)S2(=O)=O)c(C)n1C
    -5.0%	-67%[inhibitor]	16%	.	0	2	.
> O=C(c1ccccc1Cl)N1CCN(S(=O)(=O)c2cccs2)CC1
    -2.3%	4%	5%	.	11	-1	12%
> CC(/C=N/NC(=O)c1nnn(-c2nonc2N)c1C)=C\c1ccccc1
    -1.3%	-4%[15.4 µM]	11%	2.2	-8	0	2%
> COc1ccc(N2CC(C(=O)Nc3cccc(S(=O)(=O)N4CCCC4)c3)CC2=O)c(OC)c1 (stereo not given)
    -0.8%	-6%[15.4 µM]	-1%	.	-28	-9	.
> CCCc1cc(-c2n[nH]c(C)c2-c2ccc(C(=O)OCC)o2)c(O)cc1O
    -15%	6%	-7%	2.3	6	.	0%
> CN1C(=O)c2cccc3c(Br)ccc(c23)C1=O
    0.9%	14%[15.4 µM]	-7%	.	-3	.	.
> Cc1ccc2[nH]c(=O)c(CN(CCN3CCOCC3)C(=O)Nc3ccccc3F)cc2c1
    ?	-41%[inhibitor]	-6%	0.1	-13	1	7%
> Oc1ccc(NC(=S)Nc2ccc(F)cc2)cc1
    1.5%	?	8%	1.6	-8	7	-12%
> C=CCNc1nc(Nc2ccc([N+](=O)[O-])cc2)nc(OC)n1
    0.4%	-1%	2%	-6.5	-6	-19	1%
> O=C(Nc1ccnn1C1CCN(C2CCOCC2)CC1)c1cccc(F)c1
    -0.2%	4%	17%	.	-10	15	14%
> CS(=O)(=O)N1CCC(C(=O)NCCC2=CCCCC2)CC1
    0.6%	4%	7%	-2.4	-12	-7	19%
> CC(C)(C)NC(=O)CN(Cc1cccs1)C(=O)C1COc2ccccc2O1 (stereo not given)
    -1.3%	2%	2%	2.4	-4	-9	9%
> CN(C)Cc1c(C#N)c2ccccc2n1C
    -2.4%	?	4%	2.5	-21	-7	11%
> Cn1c(=O)c2c(nc(CN3CCN(C(=O)c4ccco4)CC3)n2Cc2cccc(Cl)c2)n(C)c1=O
    0.7%	-17%	-1%	-0.1	-2	11	13%
> Cc1cc(NC(=S)Nc2cccnc2)ccc1Br
    .	-57%[inhibitor]	6%	-1.5	-3	-3	-15%
> COc1ccc(OC)c(S(=O)(=O)Nc2ccc3c(c2)n(C)c(=O)n3C)c1
    -0.6%	-1%	-3%	-5.6	1	-6	11%
> c1ccc(N=Nc2cn[nH]c2-c2ccco2)cc1
    .	?	1%	1.8	2	-5	8%
> COc1ccc(Cl)cc1NC(=S)NCc1ccco1
    -0.5%	14%	1%	4.1	-18	-5	10%
> O=C(N[C@@H](Cc1ccccc1)C(=O)OCC(=O)N1CCOCC1)c1cccs1
    -0.1%	?	-13%	-0.4	2	-6	15%
> CC(C)CN(C(=O)COC(=O)c1cc(=O)[nH]c2ccccc12)c1c(N)n(Cc2ccccc2)c(=O)[nH]c1=O
    6.3%	16%	-8%	.	-19	.	.
> COc1ccc(C(C2C(=O)CC(C)(C)CC2=O)C2C(=O)CC(C)(C)CC2=O)cc1CO
    -3.4%	-26%	-26%	-8.7	-7	2	56µM*
> CCOC(=O)C1=C(COC(=O)c2cccc(Br)c2)NC(=O)NC1C (stereo not given)
    -1.3%	-8%	7%	.	-2	-6	.
> Cc1cccc(N2CCN(C(=O)COc3ccc4c(c3)CCC4)CC2C)c1 (stereo not given)
    -0.2%	?	-12%	.	0	-16	.
> COc1ccccc1C(=O)N/C(=C/c1ccc2c(c1)OCO2)C(=O)Nc1ccc(C(=O)O)cc1
    -1.2%	-5%[15.4 µM]	-9%	0.3	-3	22	8%
> CC(=O)Nc1c(OC(C)=O)ccc2c(C)cc(=O)oc12
    ?	7%	0%	3.6	3	0	2%
> Cc1nc2scc(-c3cccs3)c2c(=O)n1CC(=O)O
    -11%	20%	-8%	-8.4	-6	-6	-20%
> N#Cc1c(-c2ccccc2)oc(=O)c2ccccc12
    -14%	?	-4%	0.6	7	7	9%
> Cc1ccc(C(=O)O)cc1NC(=S)NC(=O)c1ccc(COc2ccccc2)cc1
    2.6%	-8%	?	.	-5	2	50µM*
> O=C(NCc1ccco1)c1ccccc1Nc1ccc(F)cc1
    5.1%	9%	-15%	6.3	6	-14	13%
> O=C(c1ccc(CS(=O)Cc2cccc(Cl)c2)o1)N1CCN(c2ccc(F)cc2)CC1 (stereo not given)
    -1.8%	21%	.	.	-18	.	.
> Cc1ccc(S(=O)(=O)N(C)C)cc1NC(=S)Nc1ccc2cn[nH]c2c1
    .	-3%[15.4 µM]	4%	-4.6	-14	-3	-8%
> CN(C)c1ccc(/C=c2\sc3n(c2=O)CCCN=3)cc1
    170%	-2%	-11%	?	-13	-9	-11%
> COc1ccc(OCC(=O)N2c3ccccc3CCc3ccccc32)cc1
    -0.4%	-28%	14%	4.3	2	8	-2%
> Cc1c(C=O)c2ccccn2c1C(=O)c1ccncc1
    0.1%	-16%	-16%	9.0	14	8	7%
> Cc1ccc(N2C(=O)C(CN3CCCCC3)C2c2ccccc2)cc1 (stereo not given)
    16µM*	9%[15.4 µM]	8%	-3.2	-13	-13	6%
> CC(C)(C)CC(=O)NC(=S)NCCc1ccccc1
    -1.0%	-1%	-2%	4.2	-1	7	9%
> CCOc1ccc(NC(=O)CSc2nnc(CCNC(=O)c3ccc(OC)cc3)n2C)cc1
    -1.8%	-3%	-8%	0.6	-3	1	7%
> COc1ccc(CN2CCCCC2C)cc1OC (stereo not given)
    -1.3%	-1%	3%	1.4	-7	8	18%
> COC(=O)c1c(C)[nH]c(C(=O)CN2C(=O)NC3(CCOc4ccccc43)C2=O)c1C (stereo not given)
    0.3%	6%	9%	.	5	21	.
> CCOc1cc(C(C#N)N2CCOCC2)ccc1OC (stereo not given)
    -4.0%	?	5%	3.7	-5	-7	21%
> O=C(CSc1nnc(-c2ccco2)n1CC1CCCO1)NC1CCCC1 (stereo not given)
    1.4%	-17%	10%	-0.8	19	1	-1%
> Cc1ccc(NC(=O)Cn2cnc3ccccc32)cc1C
    .	1%[15.4 µM]	8%	-2.6	-4	-21	7%
> O/N=C/CCn1c(=S)sc2ccccc21
    0.1%	20%	-7%	4.1	-9	1	3%
> Cc1noc(C)c1-c1nc(CS(=O)(=O)c2ccccc2)no1
    .	2%[15.4 µM]	0%	1.1	0	-3	13%
> C=C(C)CSc1ncc(-c2cccc(C(F)(F)F)c2)cn1
    0.6%	11%	-4%	3.8	-10	-8	7%
> CC(NCC(=O)Nc1ccccc1C(=O)NC1CC1)c1ccc(S(C)(=O)=O)cc1 (stereo not given)
    -4.8%	7%	5%	.	-7	-3	.
> Cc1cccc(OCCn2c(-c3ccco3)nc3ccccc32)c1
    25µM*	1%	35µM*	3.6	-5	-18	?
> Cc1c(N=C2Nc3cccc4cccc2c34)c(=O)n(-c2ccccc2)n1C
    0.1%	8%&-33%	1%&2%	?	-5&-14	8	-21%

(continued)
Value order: ClpP mod	gsp agonist	gsp antagonist	Menin MLL FP FL	D2 PAM	TRPV1 potentiator	Sfp PPTase inh
> Cc1ccc(C)c(NC(=S)N/N=C2\CCc3ccccc32)c1
    -1.9%	-7%	-13%	1.5	-16	13	-11%
> Cc1ccccc1NC(=S)N1CCCC1
    -9.5%	2%	17%	-0.1	-5	7	24%
> COc1ccc(/C(C)=N/N=C2/NC(=O)CC(C(=O)O)S2)cc1F (stereo not given)
    0.0%	21%	8%	2.5	-7	-17	10%
> C/C(CC(=O)Nc1ccc(Cl)c(C(F)(F)F)c1)=N\NC(=O)c1cc2ccccc2cc1O
    -1.5%	28%	-12%	3.7	13	?	21%
> CCN1CCN(Cc2ccc(NC(=O)Nc3ccccc3OC)cc2)CC1
    -4.3%	?	-5%	1.7	-7	19	-2%
> O=C(CNc1ccc2ccccc2c1)N/N=C/c1cc2ccccc2nc1Cl
    -15%	8%	-24%	4.9	?	-14	-23%

From PubChem BioAssay
